AF4-AF9 inh – inhibitors of AF4 peptide binding to AF9, primary screen, biochemical, AlphaScreen, biotin-AF4 peptide, FLAG-AF9, single point | Protein AF-9 (Homo sapiens), P42568 | inhibition, % at 10 µM | hit rate 0.47% among 350,000;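 active = every replicate reaching a set inhibition limit, whatever the replicate mean, cut at about 25% in these data; inconclusive = mean inhibition reaches that limit but some replicates miss it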;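 also: 0% = plate neutral control median and 100% = total signal loss; the record names both 10 and 1 µM as test concentration; the first replicate is given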
Target sequence (P42568 whole entry, looked up): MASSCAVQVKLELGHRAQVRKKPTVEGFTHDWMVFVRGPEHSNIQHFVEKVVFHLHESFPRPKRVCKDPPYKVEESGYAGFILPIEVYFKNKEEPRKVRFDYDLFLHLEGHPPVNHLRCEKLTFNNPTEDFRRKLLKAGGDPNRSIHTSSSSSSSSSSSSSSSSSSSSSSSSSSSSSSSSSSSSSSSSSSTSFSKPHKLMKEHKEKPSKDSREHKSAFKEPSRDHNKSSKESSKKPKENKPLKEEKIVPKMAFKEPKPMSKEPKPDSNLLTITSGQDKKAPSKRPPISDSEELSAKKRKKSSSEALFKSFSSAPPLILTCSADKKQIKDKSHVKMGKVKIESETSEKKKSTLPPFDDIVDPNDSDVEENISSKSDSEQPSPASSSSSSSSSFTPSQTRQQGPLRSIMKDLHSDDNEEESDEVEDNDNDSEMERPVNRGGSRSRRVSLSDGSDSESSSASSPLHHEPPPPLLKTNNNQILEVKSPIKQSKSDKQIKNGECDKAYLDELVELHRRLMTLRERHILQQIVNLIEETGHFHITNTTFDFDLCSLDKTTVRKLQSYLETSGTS
RanGTP-Imp inh – inhibitors of RanGTP-importin-beta interaction, primary screen, biochemical, FRET, CFP-Ran, YFP-importin-beta, homogeneous. cell-free CFP-Ran/YFP-importin-beta FRET ratio. inhibition, % (concentration not given with the values). hit rate 1.1% among 300,000. AID 2216, 2009;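 active = most replicates above 15%; inconclusive = exactly half above 15%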;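 also: 0% = DMSO wells and 100% = Ran loaded with GDP instead of GTP; wells of about 40 µL received 100 nL stock; the first replicate is given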
T cruzi inh – inhibitors of intracellular T. cruzi growth, primary screen, luminescence, NIH3T3 host cells; T. cruzi beta-gal in NIH3T3, 90 h; inhibition, % (test concentration not listed); hit rate 1.4% among 300,000;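 active = mean inhibition across valid replicates above about 55%, limit read from the data; inconclusive = mean below that limit but half or more replicates reach it; inactive = mean below it, under half of replicates reach it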;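 also: signal also drops with host cell toxicity which is not excluded here; 0% = plate median of DMSO wells and 100% = zero luminescence signal; higher percent means less beta-gal luminescence so fewer parasites; stock transfer was 50 nL into about 50 µL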
rRNA inh HTS – reduced GFP signal of wild-type E. coli, primary screen, bacterial rRNA inhibitor project, GFP/RFP fluorescence, OD600, single point. GFP signal change (wild-type ribosome), % (test concentration not listed). hit rate 1.6% among 350,000. E. coli WT GFP vs humanized-ribosome RFP mutants, 24 h; active compounds read low; DMSO median 0, no signal -100. AID 720706, 2013;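 active = significant combined selectivity score with lowered wild-type GFP, culture density cut under 30%, mutant RFP and density less affected; inactive = any of these conditions unmet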; also: one replicate is shown; some compounds called inactive have numbers as strong as hits
Beta apoptosis – inhibitors of cytokine-induced beta cell apoptosis, primary screen, luminescence; INS-1E cytokine-induced death, ATP luminescence, 48 h; percent of positive-control rescue, neutral wells zero; protection from apoptosis, % (no concentration beside the values); hit rate 0.8% among 300,000; AID 435005, 2010;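 active = all replicates at 75% or more, or half of them and the mean; inconclusive = half reach 75% but not the mean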;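 also: 0% = cytokine-treated negative control wells and 100% = positive control rescue; higher means more ATP so stronger rescue from cytokine killing; wells of about 40 µL received 100 nL stock; the first replicate is given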
Calb FLC – C. albicans growth inhibition with fluconazole, primary screen, CaCi-2 strain, Alamar Blue fluorescence. C. albicans CaCi-2 (fluconazole-resistant clinical isolate) + fluconazole, 48 h. AID 1979, 2009. hit rate 0.57% among 300,000. growth inhibition, % (concentration not given with the values);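 active = most replicates above 75%; inconclusive = exactly half above 75%; inactive = most below 75%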;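 also: all wells also contain fluconazole at 8 µg/ml as a sub-toxic cotreatment; 0% = median of DMSO wells and 100% = median of geldanamycin control wells; wells of about 8 µL received 7.5 nL stock; the first replicate is given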
ALR H2O2 inh – inhibitors of human ALR sulfhydryl oxidase, primary screen, biochemical, H2O2 detection, HRP-luminol luminescence, single point; FAD-linked sulfhydryl oxidase ALR (Homo sapiens), P55789; hit rate 3.8% among 290,000; inhibition, % (concentration not given with the values); purified ALR, DTT oxidation;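 active = mean and each replicate at 75% or more; inconclusive = only one of the two met; inactive = neither met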;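 also: stock transfer was 7.5 nL into about 7.5 µL; 0% = neutral wells and 100% = wells with inactivated enzyme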
Target sequence (P55789 whole entry, looked up): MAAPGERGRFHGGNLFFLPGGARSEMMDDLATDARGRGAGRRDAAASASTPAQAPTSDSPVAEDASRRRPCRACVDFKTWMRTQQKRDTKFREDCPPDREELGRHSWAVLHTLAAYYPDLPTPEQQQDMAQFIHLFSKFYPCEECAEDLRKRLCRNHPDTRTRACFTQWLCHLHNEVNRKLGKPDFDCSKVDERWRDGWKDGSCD
FGF22 binding – binders of human FGF22 protein, primary screen, FGF22 synaptogenesis inhibitor project, biophysical, thermal shift, single point; hit rate 1.5% among 340,000; Fibroblast growth factor 22 (Homo sapiens), Q9HCT0; recombinant FGF22 thermal shift, SYPRO orange fluorescence; percent of sucrose octasulfate shift, DMSO zero; AID 651658, 2012; calls only at 9.99 µM;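 active = melting point raised past a set limit in the mean and every replicate; inconclusive = no clear call; three in four hits are not shown here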
Target sequence (Q9HCT0 whole entry, looked up): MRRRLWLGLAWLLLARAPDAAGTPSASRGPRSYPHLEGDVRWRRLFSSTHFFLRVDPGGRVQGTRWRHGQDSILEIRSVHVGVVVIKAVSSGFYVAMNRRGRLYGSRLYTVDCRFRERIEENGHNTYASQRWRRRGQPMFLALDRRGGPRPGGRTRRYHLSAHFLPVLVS
rRNA inh HTS OD600 – second read-out of rRNA inh HTS, no call of its own (marks repeat the call); OD600 change, %; measured here: OD600 growth;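 optical density of the mix in the first replicate; 0 = DMSO median and -100 = no signal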
rRNA inh HTS RFP – second read-out of rRNA inh HTS, no call of its own (marks repeat the call); RFP signal change, %; measured here: RFP humanized mutant strains;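 first replicate; 0 = DMSO median and -100 = no signal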
* marks the source's active call; other numbers are inactive results; i = inactive; ? = inconclusive; nt = no result given. This is a subset. The share of hits here may be higher or lower than overall.

SMILES	AF4-AF9 inh	RanGTP-Imp inh	T cruzi inh	rRNA inh HTS	rRNA inh HTS OD600	rRNA inh HTS RFP	Beta apoptosis	Calb FLC	ALR H2O2 inh	FGF22 binding
Cc1cccc(CCNC(=O)C2CCN(S(=O)(=O)N3CCOCC3)CC2)c1	1.7	2.2	-1	5	1	-1.2	-2	2	0	i
Cc1ccc(NC(=O)CCNC(=O)Cn2cnc3ccccc3c2=O)cc1F	-17	11	-9	-2	6	0.8	-3	-6	-1	i
FC(F)(F)Oc1ccc(NC(=S)Nc2ccc(OC(F)(F)F)cc2)cc1	5.1	-0.5	33	-53	-50	-18	nt	-2	14	i
Cc1ccc(S(=O)(=O)NCCSCc2ccco2)cc1	-3.8	-0.4	-6	-1	3	1.6	3	-21	4	i
Cc1cc(Cl)c(S(=O)(=O)N2CCN(c3ccccn3)CC2)cc1OCC(N)=O	1.0	0.9	7	-8	0	0.4	0	0	-1	i
COc1ccc(N(C(C)C(=O)N/N=C/c2ccc(OC)c(OC)c2)S(C)(=O)=O)cc1 (stereo not drawn)	3.4	-4.9	-16	-3	3	-4.3	-2	2	-10	i
NS(=O)(=O)c1cccc(NC(=O)CSc2ccccn2)c1	nt	2.0	-17	nt	nt	nt	-10	-11	-13	nt
CC(=O)NC(NC(=S)Nc1ccc(N=Nc2ccccc2)cc1)C(Cl)(Cl)Cl (stereo not drawn)	nt	-0.1	46	nt	nt	nt	32	2	-7	nt
CNS(=O)(=O)c1ccc(NC(=O)c2ccccn2)cc1	-3.2	1.7	-6	nt	nt	nt	-1	-5	-4	i
Nc1c(C(=O)NCc2ccccc2)nnn1Cc1ccccc1	-3.0	2.3	10	4	9	-3.1	1	4	-3	i
O=C(COc1ccc(C(=O)c2ccccc2)cc1)NCC1CCCCC1	?	2.7	8	-15	-20	15	-3	12	1	i
CCOC(=O)C1CN(C(C)(C)C)C(=O)C1=O (stereo not drawn)	1.6	-0.7	-18	12	9	-1.1	nt	-4	1	i
CCCn1c(SCC(=O)NC2CCCCC2)nnc1-c1ccco1	0.9	2.4	-7	6	0	2.2	-9	-2	nt	i
CCN(c1ccccc1)S(=O)(=O)c1ccc(Cl)c(NC(=O)CNC(C)c2ccccc2)c1 (stereo not drawn)	1.2	nt	nt	-8	-17	1.9	16	nt	-3	i
C=CCc1c(C)c(C#N)c2nc3ccccc3n2c1NCCN(C)C	nt	9.2	49	nt	nt	nt	2	91*	15	nt
Cc1cccc(C)c1NC(=O)/C(C#N)=C/c1cccs1	nt	1.0	-8	nt	nt	nt	2	10	8	nt
Cn1cc(CN(Cc2ccccn2)C[C@@H]2CCC(=O)N2)c(-c2ccccc2F)n1	0.4	-0.4	-13	6	13	0.6	0	-6	-3	i
Cc1ccc(S(=O)(=O)Oc2ccc(/C=N/N=C3/NC(=O)C(CC(=O)O)S3)cc2)cc1[N+](=O)[O-] (stereo not drawn)	-1.1	0.9	-14	-7	2	1.2	nt	-10	66	i
COc1cccc(CC(=O)OCC(=O)NC(C)c2ccc(F)cc2)c1 (stereo not drawn)	-0.5	nt	nt	-6	6	2.1	-2	nt	-9	i
Nc1nc(SCC(=O)N2N=C(c3ccc(Cl)cc3)CC2c2ccco2)n[nH]1 (stereo not drawn)	2.6	2.0	-1	-11	-10	16	-2	12	2	i
Cc1cn[nH]c1	-1.1	nt	nt	11	13	1.2	3	nt	-8	i
COc1ccc(CCNC(=O)C(=O)NCCCN2CCOCC2)cc1	-1.7	0.5	nt	14	5	-4.0	8	15	-1	i
CC(C)(C)C(=O)Nc1ccccc1C(=O)N1CCCC1	nt	-0.7	5	nt	nt	nt	2	4	-6	nt
O=C(CCCCCCCC(=O)NNC(=O)Nc1ccccc1)NNC(=O)Nc1ccccc1	0.8	3.4	-8	20	16	0.6	-2	24	3	i
O=C(NCc1ccccc1)Nc1cccn(Cc2cccc(F)c2)c1=O	-90	4.6	-10	14	11	2.4	0	-10	-3	i
Cn1c(=O)[nH]c(=O)c2c1nc(N1CCCCC1)n2CCSc1nc2ccccc2o1	-3.0	?	6	3	11	3.9	4	0	nt	i
Cc1ccc(N2CC(C(=O)Nc3ccc(S(=O)(=O)Nc4nccc(C)n4)cc3)CC2=O)cc1 (stereo not drawn)	-1.0	2.3	3	6	2	-1.2	-3	10	-5	i
CN(C(=O)CSc1nncn1-c1ccccc1)C1CCS(=O)(=O)C1 (stereo not drawn)	6.9	?	-5	-1	1	0.4	-5	7	-14	i
Cc1nnc(SCC(=O)N/N=C/c2ccc(-c3ccc(C)c(Cl)c3)o2)s1	nt	6.5	6	nt	nt	nt	-1	6	61	nt
CCOC(=O)c1c(C)[nH]c(C(=O)OCC(=O)N2CCN(S(=O)(=O)c3ccccc3)CC2)c1C	nt	-4.9	13	nt	nt	nt	2	8	-6	nt
Cc1cc(F)ccc1NC(=O)CCc1c(C)nn(-c2ccc(N3CCCCC3)nn2)c1C	-1.3	1.5	-5	0	-1	-3.9	-7	0	-4	i
CCOC(=O)c1oc2ccccc2c1COC(=O)CNC(=O)c1ccc(C)cc1	-2.3	3.1	-1	4	3	-1.0	-1	-3	-1	i
COc1ccc(C2/C(=C(/O)c3ccccc3)C(=O)C(=O)N2c2ccccn2)cc1 (stereo not drawn)	-2.8	-1.4	-5	2	10	-1.9	nt	12	23	i
CC(C)n1c(N2CCN(CC(=O)NCc3cccs3)CC2)nc2ccccc21	nt	6.5	14	nt	nt	nt	8	7	5	nt
COc1ccc(CNC(=O)c2cc3cc(OC)ccc3oc2=O)cc1	-9.3	6.5	-8	11	0	0.4	nt	-1	1	i
CCC(C)(C)NC(=O)CN(C(=O)CCC(=O)Nc1nccs1)c1ccc(C)cc1	-9.0	0.6	0	5	9	1.3	-8	-8	-7	i
CCN(CC)c1ccc(NC(=O)CSc2nc3ccccc3c(=O)n2-c2cc(S(=O)(=O)N(C)C)ccc2C)cc1	nt	-1.6	34	nt	nt	nt	6	4	nt	nt
O=C(CSc1nc2ccccc2c(=O)n1CC1CCCO1)NCC1CCCO1 (stereo not drawn)	nt	-3.7	-2	2	4	0.6	0	-10	-12	nt
Clc1cccc2sc(N3CCCCC3)nc12	nt	1.3	-8	nt	nt	nt	-3	14	-6	nt
Cc1ccc(C(=O)C(=S)N2CCOCC2)cc1	?	4.3	-11	-5	-7	-2.1	-7	2	-13	i
COc1ccc(NC(=O)/C=C/c2ccc(Br)o2)cn1	0.3	6.5	3	5	15	-7.8	-2	6	-32	i
O=C(c1cccnc1)N1CCC(Oc2ccc(C(=O)N3CCCC(O)C3)cc2)CC1 (stereo not drawn)	0.2	12	-2	9	5	-1.4	-5	-4	1	i
CC(C)CC(=O)NC(=S)Nc1ccccn1	nt	7.4	-8	nt	nt	nt	-2	-6	2	nt
COc1ccc(C(=O)Nn2c(C)nc3ccccc3c2=O)cc1	-24	1.8	-7	0	-2	0.1	1	-19	-3	i
COc1ccc(-n2cc3ccc([N+](=O)[O-])cc3n2)cc1	3.4	-9.9	17	-14	-13	7.8	-7	-18	-3	i
CCOc1ccc(Nc2ncnc3c2cnn3-c2ccccc2)cc1	0.5	-1.8	-12	5	5	6.0	6	-10	-2	i
COc1ccc(CNc2ccc3c(c2)CCC3)cc1Br	2.7	1.3	47	11	12	-3.2	16	-7	-2	i
O=C(NCCC1CCCCN1S(=O)(=O)c1ccccc1)C(=O)NCc1cccnc1 (stereo not drawn)	-1.6	0.3	3	9	14	-2.8	nt	9	-3	i
CSc1ccc(-c2nnn(Cc3ccc(C)cc3)n2)cc1	nt	-1.8	7	nt	nt	nt	1	-6	-8	nt
CCSc1nnc(NC(=O)CSc2sc3c(O)cc(=O)[nH]c3c2C#N)s1	-0.8	-3.6	-10	2	6	-3.0	-3	42	70	nt
CC1CN(Cc2ccc(Cl)cc2Cl)CC(C)O1 (stereo not drawn)	nt	?	-8	nt	nt	nt	-12	-15	-1	nt
CC(C)Nc1nc(Cl)nc(NNC(=O)C(C)Oc2ccccc2)n1 (stereo not drawn)	nt	?	-11	nt	nt	nt	-5	5	nt	nt
O=C(NN1CCOCC1)c1cnn2c(C(F)F)cc(-c3ccccc3)nc12	-1.3	-3.5	17	-7	-1	-3.6	6	24	4	i
CCC1(CC)Nc2ccccc2C(=O)N1c1ccc(NC(C)=O)cc1	nt	7.7	-14	nt	nt	nt	-4	2	-10	nt
Cc1ccc(NC(=O)c2cc(C)on2)cc1	nt	-1.9	-12	nt	nt	nt	-6	-2	-6	nt
CCS(=O)(=O)NCC(c1cccnc1)N1CCN(c2ccc(F)cc2)CC1 (stereo not drawn)	nt	6.7	47	nt	nt	nt	-12	-4	69	nt
CC(=O)Nc1ccc(NC(=O)C(C)OC(=O)c2oc3ccccc3c2C)cc1 (stereo not drawn)	-0.1	-1.2	3	3	12	0.6	nt	0	-7	i
O=C(Nc1ccc2[nH]c(=O)[nH]c2c1)c1ccc([N+](=O)[O-])o1	-1.8	nt	nt	-13	9	-7.3	-9	nt	-22	i
Cc1cc(C(=O)N2CCOCC2)n(-c2ccccc2)n1	7.6	-0.1	-12	4	-1	1.7	nt	-1	-8	i
O=C(COc1ccc(Br)cc1)OCCN1CCCCC1	-0.9	-0.6	-5	5	10	5.8	-5	-6	nt	i
Next entries
SMILES	AF4-AF9 inh	RanGTP-Imp inh	T cruzi inh	rRNA inh HTS	rRNA inh HTS OD600	rRNA inh HTS RFP	Beta apoptosis	Calb FLC	ALR H2O2 inh	FGF22 binding
O=C(CSc1nnc(Cc2ccccc2)o1)N1CCCC1	-29	3.8	7	5	4	-0.6	-5	3	-3	i
C/C(=N\NC(=O)C(C)Nc1cccc(Cl)c1)c1ccc([N+](=O)[O-])cc1 (stereo not drawn)	nt	1.1	-25	nt	nt	nt	0	0	-3	nt
Cc1nn(CC(=O)Nc2nnc(C(C)C)s2)c(=O)c2ccccc12	-4.6	-1.1	-24	5	1	4.4	2	-4	0	i
CCc1ccc(CN(C)C(=O)C2CCC(=O)N(CCCN3CCCC3=O)C2)cc1 (stereo not drawn)	-0.9	1.8	-11	9	7	-3.6	-2	0	0	i
O=C(COC(=O)c1ccccc1[N+](=O)[O-])Nc1nnc(-c2ccccc2)o1	-39	1.6	-4	9	-2	1.5	1	7	-1	i
COc1cc(/C=N/n2cnnc2)ccc1OCc1ccc(C)cc1	nt	0.0	46	nt	nt	nt	-6	0	nt	nt

Assay outcomes: PubChem, Broad Institute
